Rango dissoc inh: inhibition of RanGTP-driven Rango-importin beta dissociation; Potency, µM (series often up to 46.1 µM), without a hit: at the highest dose activity change, negative = inhibition; Biochemical FRET Rango-importin beta, RanGTP-induced dissociation; 0.071% of 340,000 active; O95149+P62826; active means falling FRET ratio curve, often poorly fitted, with flat reads before Ran was added; inconclusive means other falling curves, or compound fluorescence or quenching; inactive means flat or rising ratio curve;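 note: potency is the fitted concentration of half-maximal effect; % of control where 0% means no effect; nearly all actives have a fitted effect of over 45% in size; -100% = wells without RanGTP and RCC1; the record marks most hits as doubtful in a second field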
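Recombinant Rango FRET biosensor (EYFP–snurportin 1 IBB–cerulean CFP10) at 0.1 uM premixed with 0.25 uM importin beta in PBS, 1 mM DTT, 0.02% Tween-20, 0.1% BSA. Compound added 5 min; RanGTP-RCC1 (0.6 uM Ran, 2 mM GTP, 0.2 uM RCC1) then triggers release, read at 45 min.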
miR-21 FLuc: miR-21 reporter, rising signal | HeLa miR-21 FLuc reporter, luciferase, 48 h | Potency, µM (doses to about 38.3 µM), inactives show at the top dose reporter change, positive = more light | 340,000 tested, under 10 active | AID 2288; active = well fitted rising curve with a large enough effect; inconclusive = small, poorly fitted or top-dose-only effect; inactive = no such curve, though single readings can be large or run the other way;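 note: % of control where 0% means no effect; miR-21 action dims this reporter so a rising signal means less miR-21 action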
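HeLa cells stably expressing CMV-driven firefly luciferase with a downstream miR-21 binding sequence, endogenously expressing miR-21, were treated with titrations (up to about 40uM final) for 48 hours at 37 degree Celsius. Luciferase luminescence was read after lysis.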
Rango-impB inh: Rango-importin beta binding inhibition; Potency, µM (top dose mostly 92.2 µM), inactives show at the top dose inhibition of complex formation; Rango CFP/YFP FRET sensor + importin beta, 45 min; 0.031% of 340,000 active; AID 540263; active = rising FRET ratio curve, often small or poorly fitted; inconclusive = mostly compound fluorescence or quenching in the first reads; inactive = flat curves in all reads;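 note: potency is the fitted concentration of half-maximal effect; 0% = DMSO wells and 100% = buffer wells lacking importin beta; nearly all actives have a fitted effect of over 15% in size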
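FRET biosensor Rango (snurportin 1 IBB between N-terminal EYFP and C-terminal Cerulean), 50 nM in PBS/1 mM DTT/0.02% Tween-20/0.1% BSA, preincubated 5 min RT with compound; 0.125 microM importin beta added, 45 min RT, CFP/YFP FRET ratio read.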
GLA inh pH 4.5: blocks human alpha-galactosidase A at pH 4.5 | P06280 | purified enzyme, 4-MU-alpha-Gal fluorescence, pH 4.5 | activity change, negative = inhibition, % at 105 µM | 230,000 tested, under 10 active | AID 1467; inconclusive = small, poorly fitted or top-dose-only inhibition, or a rising curve; inactive = flat fitted curve, though single readings scatter; no compound was filed as active;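 note: 0% = full activity with enzyme and -100% = basal without enzyme; dose as in the result columns while the protocol names 77 µM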
Target sequence (P06280 whole entry, looked up): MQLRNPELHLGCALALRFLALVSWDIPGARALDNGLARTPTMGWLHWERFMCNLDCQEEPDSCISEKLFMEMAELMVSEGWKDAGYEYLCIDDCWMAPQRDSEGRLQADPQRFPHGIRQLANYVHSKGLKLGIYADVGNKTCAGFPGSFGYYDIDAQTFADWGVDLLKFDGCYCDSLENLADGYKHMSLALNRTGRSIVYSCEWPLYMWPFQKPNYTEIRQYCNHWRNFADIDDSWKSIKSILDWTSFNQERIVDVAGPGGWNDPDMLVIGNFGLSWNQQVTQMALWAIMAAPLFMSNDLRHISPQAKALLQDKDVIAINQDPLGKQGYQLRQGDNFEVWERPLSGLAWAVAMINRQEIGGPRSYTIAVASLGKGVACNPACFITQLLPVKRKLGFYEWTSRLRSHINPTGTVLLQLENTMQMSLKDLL
Starred values were filed as active, the others as inactive; u = inconclusive; x = not tested or not shown; & = joins results of further samples.

Preview (3 entries):
nr	Compound	Rango dissoc inh	miR-21 FLuc	Rango-impB inh	GLA inh pH 4.5
1	COC(=O)c1ccccc1NC(=O)CSc1ccccc1	8%	-21%	4.4%	-11
2	Cc1ccc(C(=O)NCc2ccccc2)c(F)c1F	u	-42%	0.1%	-10
3	N#Cc1c(N2CCCCC2)nc(N)c2c(N)nc3c(c12)CC(CCl)O3 (configuration not stated)	u	-5%	u	-14

The whole of this part, from the start:
nr	Compound	Rango dissoc inh	miR-21 FLuc	Rango-impB inh	GLA inh pH 4.5
1	COC(=O)c1ccccc1NC(=O)CSc1ccccc1	8%	-21%	4.4%	-11
2	Cc1ccc(C(=O)NCc2ccccc2)c(F)c1F	u	-42%	0.1%	-10
3	N#Cc1c(N2CCCCC2)nc(N)c2c(N)nc3c(c12)CC(CCl)O3 (configuration not stated)	u	-5%	u	-14
4	CCOC(=O)c1[nH]c(C)c(C(=O)N2CCCC(Nc3ccc(C)c(C)c3)C2)c1C (configuration not stated)	-11%	-2%	-0.8%	x
5	CC12CN3CC(C)(CN(C1)C3c1ccc(Cl)cc1Cl)C2O (configuration not stated)	3%	0%	0.0%	3
6	Cc1nc(N2CCN(c3ccc(Cl)cc3)CC2)[nH]c(=O)c1C	27%	0%	6.3%	x
7	O=C1Nc2ccc(F)cc2C12Nc1ccccc1-c1nnc(SCc3ccccc3Cl)nc1O2 (configuration not stated)	-4%	-13%	0.9%	-1
8	CC/C(=N\NC(=O)c1ccccc1Cl)c1ccc(Br)s1	0%	-27%	3.0%	5
9	COc1ccc(C(CC(=O)O)NC(=O)COc2ccccc2)cc1 (configuration not stated)	u	-3%	-0.6%	-3
10	CCOc1ccc(NC(=O)CN(c2cc(C)cc(C)c2)S(=O)(=O)c2c(C)noc2C)cc1	-10%	0%	0.6%	-2
11	COc1ccc(NC(=O)c2ccco2)cc1S(=O)(=O)N1CCOCC1	16%	-2%	-0.5%	-12
12	Cc1ccc([N+](=O)[O-])cc1S(=O)(=O)NCC1COc2ccccc2O1 (configuration not stated)	5%	8%	-1.6%	x
13	Nn1c(SCC(=O)Nc2cccc(F)c2)nnc1C1CCCCC1	-1%	-5%	0.5%	-12
14	Cc1cc(C)c(C(=O)CSc2n[nH]c(-c3ccncc3)n2)c(C)c1	5%	1%	-3.6%	3
15	COc1cnc(-c2ccccn2)nc1Oc1ccccc1Cl	-12%	u	1.6%	0
16	CC(C)OC(=O)C(C)Nc1n[nH]c(=S)[nH]c1=O (configuration not stated)	3%	-9%	-0.9%	-4
17	CCOc1ccc(NC(=S)N2CCN(S(=O)(=O)c3ccc(OC)cc3)CC2)cc1	4%	22%	-0.7%	x
18	Cc1cc(C)n(-c2nc(O)cc(=O)[nH]2)n1	1%	-5%	-1.3%	7
19	Cc1cccc(-c2c(NC(=O)c3ccco3)oc3ccc(Cl)cc3c2=O)c1	-9%	-3%	5.0%	x
20	CCc1nc(SCc2nc3ccccc3[nH]2)c2oc3ccccc3c2n1	4%	23%	4.5%	-5
21	COCCN(C(=O)c1ccco1)c1nc(-c2ccccc2)cs1	-7%	-39%	-1.9%	x
22	CC(=O)c1ccc(NC(=O)COC(=O)C2CC3C=CC2C3)cc1 (configuration not stated)	-9%	x	-0.1%	x
23	CCOc1ccccc1NC(=S)Nn1cnnc1	-11%	-3%	1.9%	x
24	COc1c(-c2ccccc2)oc2c(ccc3occc32)c1=O	-25%	x	0.1%	-3
25	O=C(c1cc(N2C(=O)C3C4CCC(C4)C3C2=O)ccc1Cl)N1CCCCCC1 (configuration not stated)	-6%	-1%	u	2
26	Cc1ccnc(NS(=O)(=O)c2ccc(NC(=O)c3cc(-c4ccccc4)nc4ccccc34)cc2)n1	-5%	-9%	0.1%	-2
27	C=CCN1C(=O)c2ccc(C(=O)N3CCN(S(=O)(=O)c4cc(C)ccc4C)CC3)cc2C1=O	-5%	x	0.7%	x
28	O=C(NCc1ccc(N2CCCC2=O)cc1)c1cn(Cc2ccccc2)nn1	10%	-6%	3.7%	-4
29	Cc1cc(C(=O)OCC(=O)N(CC(C)C)c2c(N)n(Cc3ccccc3)c(=O)[nH]c2=O)c2ccccc2n1	-8%	x	-1.6%	x
30	O=[N+]([O-])c1cc(C(F)(F)F)ccc1N1CCN(CCO)CC1	u	-5%	1.9%	5
31	COc1ccc2cc(/C=N/NC(=O)CSCc3ccc([N+](=O)[O-])cc3)c(Cl)nc2c1	-7%	-5%	-5.6%	3
32	O=C(CNC(=O)c1n[nH]c2ccccc12)Nc1cc(Cl)ccc1Cl	1%	x	0.6%	x
33	NS(=O)(=O)c1cccc(NC(=O)CN2CCC(Cc3ccccc3)CC2)c1	9%	0%	-6.1%	-2
34	Cc1cc(C)c2nc(SCC(=O)NCC3CCCO3)c(C#N)cc2c1 (configuration not stated)	-6%	-2%	u	-3
35	COc1ccc2c(=O)c(C(=O)NCCc3ccccc3)c[nH]c2c1	8%	-30%	-0.3%	x
36	CCOc1ccc(NS(=O)(=O)c2ccc(C(=O)N(C)CC(=O)Nc3ccc(OC)cc3)cc2)cc1	18%	x	0.0%	x
37	Cc1cc(C=O)c(C)n1-c1ccc(NC2CCCCC2)c([N+](=O)[O-])c1	5%	6%	0.6%	-3
38	CCc1c(O)nc2sc3ccccc3n2c1=O	4%	-4%	0.8%	-10
39	COC(=O)c1ccc(C2C(C#N)=C(N)Oc3cc(N)ccc32)cc1 (configuration not stated)	u	0%	u	x
40	CN(C)CCn1ccc(O)c(Cc2ccc(Cl)cc2)c1=O	-5%	-1%	-0.2%	x
41	CCn1c(=O)[nH]c2cc(C(=O)Nc3cc(C)cc(C)c3)ccc2c1=O	-6%	4%	2.2%	6
42	O=C(O)c1cc(NC(=O)c2ccc3c(c2)C(=O)N(Cc2ccccc2)C3=O)cc(C(=O)O)c1	5%	2%	0.0%	x
43	O=C(CN1N=C(c2ccccc2)CCC1=O)NCc1ccccc1	4%	-3%	12%	10
44	O=S(=O)(NCc1ccccn1)c1ccc(Br)s1	-8%	-3%	5.6%	-19
45	COCCNC(=O)c1cc(-c2ccccc2)nn1Cc1cc(C)no1	-10%	x	-1.2%	x
46	CN1CCCN(Cc2cccc3ccccc23)CC1	8%	1%	-1.7%	x
47	COc1ccc(C(=O)O/N=C(/C)c2cccs2)cc1	-2%	1%	-0.7%	4
48	O=c1cc(O)n(-c2ccccc2F)c(=S)[nH]1	-12%	-6%	-0.2%	9
49	CCOC(=O)C1CCN(C(=O)Nc2c(-c3ccccc3)noc2C)CC1	-11%	-2%	-4.1%	-3
50	O=C1c2ccccc2C(Nc2ccc(S(=O)(=O)N3CCCCC3)cc2)N1Cc1ccco1 (configuration not stated)	-2%	-8%	3.5%	-11
51	O=C1c2ccccc2C(=O)N1CC(O)Cn1nnc2ccccc21 (configuration not stated)	29%	-1%	4.3%	2
52	CC(=O)N(c1ccc(Br)cc1)C1C=CS(=O)(=O)C1 (configuration not stated)	11%	-7%	1.5%	3
53	O=S(=O)(Nc1ccccc1)N1CCCCC1	4%	x	0.3%	x
54	N#CC1(NC(=O)COc2ccc(S(=O)(=O)N3CCCC3)cc2[N+](=O)[O-])CCCCC1	-1%	x	-2.9%	x
55	CCCn1c(SCC(=O)NCc2ccc(OC)cc2)n[nH]c1=O	1%	0%	0.3%	-7
56	O=C(c1ccccc1)N1CCN(C(=O)c2ccccc2Br)CC1	0%	-2%	3.4%	3
57	O=C(Nc1ccccc1C(=O)N/N=C/c1ccco1)c1ccccc1Cl	-13%	-12%	-2.2%	-2
58	Cc1ccc2c(c1)C(=O)CC(O)(C(F)F)O2 (configuration not stated)	1%	-4%	-1.8%	-3
59	CS(=O)(=O)c1ccc(Cl)c(NC(=O)Cc2c(Cl)cccc2Cl)c1	12%	-2%	2.6%	2
60	Cc1ccc(C)c(NC(=O)Cc2nc(CNCC(C)C)cs2)c1	8%	2%	3.3%	x

Following part.
nr	Compound	Rango dissoc inh	miR-21 FLuc	Rango-impB inh	GLA inh pH 4.5
61	CC1CCCC(NC(=O)COC(=O)CN2C(=O)C3CCCCC3C2=O)C1C (configuration not stated)	-14%	2%	0.4%	8
62	COc1ccccc1OCCCC(=O)Nc1nccs1	-20%	-29%	-0.4%	-3
63	O=C(N/C(=C\c1ccc([N+](=O)[O-])cc1)C(=O)N1CCCCC1)c1ccc(Br)o1	-3%	-2%	5.6%	x
64	COC(=O)c1ccc(C23CC4(C2)[C@H](CN(CC2CCCCC2)[C@@H]4c2ccccc2)C3c2ccc(C(F)(F)F)cc2)cc1 (some centres not stated)	2%	1%	4.4%	5&2
65	S=c1[nH]cnc2scc(-c3ccccc3)c12	-17%	-17%	0.8%	2
66	CC1=NN(C(C#N)c2ccc(F)cc2)C(C)(C)C1 (configuration not stated)	-1%	0%	-1.0%	3
67	Cc1ccc(S(=O)(=O)c2cc(C#N)c(=O)[nH]c2N)cc1	u	4%	u	-4
68	O=C(NCC1CCCO1)c1ccc[nH]1 (configuration not stated)	-7%	4%	-4.0%	x
69	Cc1cccc(OCC(=O)N(Cc2ccccc2)c2c(N)n(Cc3ccccc3)c(=O)[nH]c2=O)c1	2%	x	3.7%	x
70	Cc1ccc(S(=O)(=O)N=Nc2c(O)[nH]c3ccccc23)cc1	3%	0%	-1.4%	3
71	O=C(NCc1ccccc1Cl)c1ccncc1	27%	7%	-0.1%	x
72	CC(C)CCNC(=O)c1ccc(Cl)c(N)c1	x	-51%	x	3
73	O=C(Nc1ccc(Cl)cn1)c1ccccc1F	21%	-3%	3.4%	3
74	Cc1ccnc(Nc2nc(-c3ccc(Cl)cc3)cs2)c1	0%	-27%	1.3%	x
75	c1ccc2c(c1)CCCN2c1nc(N2CCOCC2)nc(N2CCOCC2)n1	-7%	2%	0.6%	-3
76	O=C(CCl)N1CCN(S(=O)(=O)c2ccc3c(c2)CCC3)CC1	-13%	x	3.1%	x
77	O=C(OCC1CC(c2ccccc2Cl)=NO1)c1ccc(Br)cc1 (configuration not stated)	-4%	-13%	-1.2%	-4
78	CCOc1ccc2nc(NC(=O)C3CSC4(C)CCC(=O)N34)sc2c1 (configuration not stated)	-3%	x	9.9%	x
79	CCC(C)NC(=O)c1cc(-c2cccs2)nc2ccccc12 (configuration not stated)	-8%	8%	-0.3%	x
80	COc1ccc(C2=Nn3c([n+](C)c4ccccc43)SC2)cc1	0%	u	0.3%	-1
81	CC(=O)N1CCc2cc(S(=O)(=O)NC3CCCc4ccccc43)ccc21 (configuration not stated)	6%	-2%	0.4%	-2
82	CCOC(=O)CN1C(=O)/C(=C/c2c(F)cccc2Cl)Oc2ccccc21	8%	11%	6.2%	x
83	CCOC(=O)Cc1nn(CC)c(=O)c2ccccc12	-4%	1%	-1.8%	4
84	O=C(Nc1ccc(CN2CCOCC2)cc1)c1cccc(F)c1	19%	-50%	7.8%	-5
85	CC1CN(C(=O)CSc2nnc(-c3ccncc3)n2-c2ccccc2)CC(C)O1 (configuration not stated)	2%	-1%	-3.0%	-5
86	CCn1c(SCC(=O)Nc2ccc(F)cc2)nnc1-c1cnccn1	2%	-4%	1.2%	x
87	Cc1ccc(CN2C(=O)CSC2c2ccccc2F)cc1 (configuration not stated)	-9%	-7%	0.0%	x
88	CS(=O)(=O)NNC(=O)c1csc(Cc2c(Cl)sc3ccc(Cl)cc23)n1	-11%	1%	-3.6%	6
89	COc1ccc(/C=C/C(=O)OCC(=O)N2CCCC2)c(OC)c1	7%	x	-2.5%	x
90	COc1cc(-c2nc3ccc(N4CCN(C)CC4)cc3[nH]2)cc(OC)c1OC	-3%	-37%	4.5%	7
91	Cc1[nH]nc2c1C(c1cccs1)C1=C(CC(C)(C)CC1=O)N2 (configuration not stated)	-16%	7%	1.9%	3
92	CCOc1ncccc1C(=O)Nc1ccc(-c2ccc3nnc(C)n3n2)cc1	1%	-10%	-1.0%	-2

A portion of the library (hit frequency here may not be typical).
